Calb biofilm kill: mixture kills Candida albicans biofilm cells | C. albicans biofilm persisters + clotrimazole, fluorescence viability; primary screen in compound mixtures of four per well | inhibition, % at 7.6 µM | 120,000 tested, 0.02% active | AID 1242;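 active means inhibition above 30.3% in the primary screen of four-compound pools, then above 30% when the compound was retested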;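 further: compounds exposed to preformed 24 h biofilms for 48 h; the number belongs to the whole pool; some results filed as inactive read as strong as hits; inactives centre near 12; 0% = biofilm with clotrimazole alone and 100% = kill control; retested singly at about 60 µM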
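Test system: C. albicans CAF4-2 wild-type biofilms; buffer or medium: RPMI/MOPS medium, pH 7.0; schedule: 24 h biofilm formation, then 48 h compound exposure, 37 °C; detection: Alamar Blue fluorescence; measure: percent inhibition of biofilm viability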
* hit, by the source's call.

SMILES	Calb biofilm kill
COc1ccc(CC2(CO)CCN(Cc3ccc(NC(C)=O)cc3)CC2)cc1	15
Cc1cc(N/N=C/c2cccc(Br)c2)nc2ccccc12	16
CC(C)(C)N1CC(C(=O)O)CC1=O (centres undefined)	27
COc1ccccc1N1CCN(C(c2cccs2)C(C)NC(=O)c2cccnc2)CC1 (centres undefined)	19
C/C(=N\NC(=O)C(N)=O)c1cccc(C(F)(F)F)c1	15
COc1ccc(C2/C=C\CN(S(=O)(=O)/C=C/c3ccccc3)[C@H](Cc3ccccc3)C(=O)N2Cc2ccc(F)cc2)cc1 (some centres undefined)	22
CCN(CC)CCOC(=O)c1ccc([N+](=O)[O-])cc1	10
O=C(CN1CCCCC1)N/N=C/c1cc2ccccc2nc1Cl	4
Cc1cccc(/C=N/NC(=O)c2cc(-c3cccnc3)nc3ccccc23)c1	-7
COc1ccc(CCNC(=O)CSc2nnc3ccc(-c4cccnc4)nn23)cc1OC	16
Fc1ccc2nc(C3CCCCN3Cc3nc(CC4CC4)no3)[nH]c2c1 (centres undefined)	12
c1ccc(C(c2ccccc2)c2noc(CN3CCN(CC4CC4)CC3)n2)cc1	17
CCCCCCCCCCOC(=O)C[N+](C)(C)CC1CCCCC1O (centres undefined)	8
C=CCC1(C#N)C(SC)=NC2=C(C(=O)CC(C)(C)C2)C1c1ccc(Br)cc1 (centres undefined)	12
COc1ccccc1N(Cc1ccccc1)S(=O)(=O)c1cccc(C(=O)Nc2ccc(C(C)=O)cc2)c1	9
COC/C=C/C1=CC2=CC(=O)C(C)(OC(=O)c3ccco3)C(=O)C2=CO1 (centres undefined)	13
N#CCC(=O)N1CCN(C=O)CC1	8
O=C(NN(CC(O)COc1ccccc1)CC(O)COc1ccccc1)c1ccccc1 (centres undefined)	5
Cc1ccc(NC(=O)CSc2ncnc3ccccc23)cc1S(=O)(=O)N1CCCCC1	10
Cc1ccc(NC(=O)C(=O)NN=C2CCCC2)cc1C	27
CS(=O)(=O)CCC(C(=O)N1CCOCC1)N1C(=O)c2cc(Cl)c(Cl)cc2C1=O (centres undefined)	-8
N/N=C1\CCCc2c1[nH]c1ccc([N+](=O)[O-])cc21	17
c1ccc2c(CSc3ncnc4nc[nH]c34)cccc2c1	12
CCCCN1C(=O)C(=O)NC[C@@H]1C(C)CC (some centres undefined)	9
O=C1NC(NS(=O)(=O)c2ccc(Cl)cc2)(C(F)(F)F)C(=O)N1c1ccccc1 (centres undefined)	13
Cn1c(=N)n(CC(O)c2cccs2)c2ccccc21 (centres undefined)	25
C[C@@H]1CC=C[C@H]2[C@H]1C(=O)N(Cc1ccccc1)[C@H]2c1cccc([N+](=O)[O-])c1	12
CN(C)c1nc(NCc2ccccc2)nc(SCC(=O)Nc2ccccc2Cl)n1	11
COc1ccc(C(=O)COC(=O)CNS(=O)(=O)c2ccc(C)cc2)cc1	19
CC(=O)Nc1cc(Cl)c(N=Cc2ccc(O)cc2O)cc1Cl	21

Fetched by structure from the entries so far, 2 records:
SMILES	Calb biofilm kill
O=C1NC(NS(=O)(=O)c2ccc(Cl)cc2)(C(F)(F)F)C(=O)N1c1ccccc1 (centres undefined)	13
Fc1ccc2nc(C3CCCCN3Cc3nc(CC4CC4)no3)[nH]c2c1 (centres undefined)	12

(further entries)
SMILES	Calb biofilm kill
C#Cc1cccc(NC(=O)c2ccc(Cl)cc2Cl)c1	10
COc1ccc(N2C(=O)C(CC(=O)Nc3ccc(Cl)cc3)N(NC(=O)c3cccc(F)c3)C2=S)cc1 (centres undefined)	9
O=C(CNC(=O)c1ccccc1F)OCC(=O)N1CCCCC1	17
Cc1cc(/C=N/NC(=O)c2ccccc2F)c(C)n1-c1ccccc1	9
N/C(CCS(=O)(=O)c1ccc(Cl)cc1)=N\OC(=O)c1ccccc1Cl	19
O=C(CC(Nc1cccc(Cl)c1Cl)C(=O)OCC(=O)c1cccs1)c1ccccc1 (centres undefined)	28
O=C(CS(=O)(=O)Cc1ccccc1)Nc1ccc2c(c1)OCO2	3
CCCn1nc(NS(=O)(=O)c2ccccc2)c2cc3ccccc3nc21	20
CC1(C)Cc2ccccc2C(=C(C#N)C#N)N1	13
COc1cc(NC(=O)c2cc3cccc(OC)c3o2)cc(C(=O)Nc2cccc(C(F)(F)F)c2)c1	13
COC(=O)c1sccc1-n1cc(C#N)c(=O)n(C)c1=O	18
Cn1cc(CN2C[C@]3(C)C[C@H]2CC(C)(C)C3)c(-c2ccc3c(c2)OCCO3)n1	12
CCCCNC(=O)[C@H](Cc1c[nH]c2ccccc12)NC(=O)c1ccccc1Cl	4
O=C(CCN1C(=O)c2ccncc2C1=O)Nc1cc(F)ccc1F	11
COc1ccc(CCNC(=O)C/C(C)=N/NC(=O)Cc2cccc3ccccc23)cc1OC	21
O=C(NC1=NCCS1)C12CC3CC(CC(C3)C1)C2	1
CCNC(=S)N/N=C(\C)c1cccc(C(F)(F)F)c1	15
CCC1(C)COC(C)(CC(=O)NNC(=O)Nc2ccccc2)OC1 (centres undefined)	0
COc1cc(/C=N/NS(=O)(=O)c2ccc3ccccc3c2)ccc1OCCN1CCOCC1	9
Cc1cccc(Nc2ccccc2C(=O)O)c1C	8
CCOC(=O)C(=CNc1ccc(Oc2cccnc2)nc1)C(=O)OCC	25
C=CCNC(=O)c1ccccc1NC(=O)c1ccccc1SC	5
Cc1nc2c(Cl)c(C)nn2c2c1CCC2	1
COC(=O)c1ccc(C(=S)N2CCCCC2)cc1	-11
COc1ccc(CC(=O)OCC(=O)Nc2ccc(Cl)c(S(=O)(=O)N(C)C)c2)cc1	9
Cc1nn(-c2ccccc2)c(Cl)c1/C=N/Nc1nnc(C)c(=O)[nH]1	2
CC1(C)CC(NC(=O)c2sc3cc(Cl)ccc3c2Cl)CC(C)(C)N1	19
Cn1sc(=O)c2cc(S(=O)(=O)NC3CC3)ccc21	13
Cc1nc2c(-c3ccccc3)c(C)nn2c(N)c1-c1ccccc1	13
CC(=O)Nc1ccc(C(=O)OCC(=O)c2ccc(F)cc2)cc1	6
CCOC(=O)c1cnc2ccc(OC)cc2c1NCCc1ccc(OC)c(OC)c1	14
CC(C)C(=O)NCc1cc(-c2ccc(Cl)cc2)no1	16
Cc1c(NC(=O)c2ccc(N(Cc3ccccc3)S(C)(=O)=O)cc2)c(=O)n(-c2ccccc2)n1C	13
COC(=O)c1ccc(NC(=O)CSc2nc(=O)cc(N)n2-c2ccccc2)cc1	12
COc1ccc(-c2nn(-c3ccccc3)cc2/C=N/N=C(N)N)cc1OC	19
Cc1ccc(NS(=O)(=O)c2cccc(C(=O)N/N=C/c3ccc4c(c3)OCCO4)c2)c(C)c1	20
O=C1C2CC(O)CN2C(=S)N1Cc1ccccc1 (centres undefined)	1
N#CCCn1cc(C(N)=O)c(-c2cccs2)n1	14
C=CCOC(=O)C1=C[C@@H](c2cn(C(C)=O)c3ccccc23)C[C@@H](OCCCCO)O1	16
S=C(NCCc1ccccn1)Nc1ccccc1Cl	19
CC(C)Oc1ccc(CC2CCC(=O)N(C)C2=O)cc1 (centres undefined)	17
C/C(=N\NC(=O)COc1ccc(C)cc1[N+](=O)[O-])c1cccs1	11
CC(=C/c1ccco1)/C=N/NC(=O)CSc1nnc(SCc2ccc(C)cc2)s1	21
C=CCNC(=S)N1CCN(C2CCCCC2)CC1	21
CCc1nc2ccccc2c(=O)n1NC(=O)c1c(O)c2ccccc2n(CC)c1=O	20
COC(=O)c1ccc(-c2noc(CN3CCCC(CNC(C)=O)C3)n2)cc1 (centres undefined)	11
CCNC(=O)COC(=O)CCC(=O)c1cccs1	13
O=C(N/N=C/c1ccc([N+](=O)[O-])o1)C(=O)Nc1ccc(C(=O)O)cc1	4
CCCCCCCN(C(=O)CCl)c1ccccc1C	11
CCOC(=O)C(=O)Nc1ncc(Cl)s1	21
Next part
SMILES	Calb biofilm kill
CCN(CC)C(=O)c1ccc(/C=C/c2c[nH]c3ccccc23)[n+](C)c1	-2
COc1ccc(CC(=O)N/N=C/c2cccn2-c2ccc([N+](=O)[O-])cc2)cc1OC	13
CN(C)CCCN(Cc1cc2cc3c(cc2[nH]c1=O)OCCO3)C(=O)NC1CCCCC1	18
NC(=O)C1CCN(c2ccc([N+](=O)[O-])cc2Cl)CC1	3
CCOC(=O)N1CCC(N2Cc3cccc(C(=O)Nc4cccc(F)c4)c3C2=O)CC1	14
NC(=O)NC(=O)COC(=O)CCSc1ccccc1	29
COC(=O)CCC(=O)Nc1cc(S(=O)(=O)Nc2ccc(Cl)cc2)ccc1N1CCOCC1	-1
O=C(NC1CCCCCCC1)c1ccccc1-c1ccccc1	21
COc1ccc(N2CCN(C(=O)CCNC(=O)c3ccccc3)CC2)cc1	18
CC(=O)OC[C@H]1O[C@@H](n2ncc(=O)[nH]c2=O)[C@H](OC(C)=O)[C@@H]1OC(C)=O	18
CCc1ccc(-n2cccc2/C=C2/C(=N)N3C(=NC2=O)SN=C3S(C)(=O)=O)cc1	11
O=C(/C=C/Nc1ccc(F)c(F)c1)c1ccc(Br)cc1	17
C/C(=N\NC(=O)c1ccc(NS(=O)(=O)c2cccs2)cc1)c1ccc(C(C)(C)C)cc1	19
COc1ccc(OCC(=O)Nc2ccccc2Cl)cc1	7
O=C(Nc1cccnc1)c1cccc(S(=O)(=O)N2CCCC2)c1	5
O=C(CN1CCN(c2ccccn2)CC1)N1CCc2ccccc21	23
CC1CN(CCn2cnc3c(N)ncnc32)CC(C)O1 (centres undefined)	7
COc1cccc(/C=C/C(=O)OCC(=O)Nc2cccc(S(=O)(=O)N3CCCCC3)c2)c1OC	7
CCc1ccc(OCC(=O)Nc2ccc(CN3CCCCC3)cc2)cc1	18
Cc1ccc(C2(C)NC(=O)N(CC(=O)Nc3ccc(-c4nc5ccc(C)cc5s4)cc3)C2=O)cc1 (centres undefined)	9
COc1ccc(CCNC(=O)CSc2nc3[nH]ncc3c(=O)n2-c2ccccc2Br)cc1OC	19
CCOC(=O)c1c(-c2ccc(OC)cc2)csc1/N=C/C1C(=O)CCCC1=O	17
CCCCNC(=O)COC(=O)c1ccc(N(C)C)cc1	12
CC(C)N=C(NS(=O)(=O)c1ccc(Br)cc1)c1ccc(Cl)cc1	17
CC1CCC(NC(=O)c2ccc(/C=C3\Oc4ccccc4N(C)C3=O)cc2)CC1 (centres undefined)	13
COc1ccc2cc(C(=O)COC(=O)COc3ccc4c(C)cc(=O)oc4c3)ccc2c1	7
O=C(O)CCCCCNc1ncnc2ccc(Br)cc12	24
CN1/C(=C\C(=O)CSc2nnc(N)s2)C(C)(C)c2ccccc21	14
COc1ccc(NC(=O)Cn2cc(S(=O)(=O)Cc3ccccc3)c3ccccc32)c(OC)c1	15
CCC(=O)Nc1ccc(/C(C)=N/NC(=O)c2c(-c3ccccc3Cl)noc2C)cc1	14
CC(C)C(=O)Nc1cccc(C(=O)Nc2cc([N+](=O)[O-])ccc2Cl)c1	4
C=CCN1C=C2C(=O)C(C)(OC(=O)CCC(=O)OC)C(=O)C=C2C=C1C1CC1 (centres undefined)	4
c1ccc(-c2csc(-c3cccnc3)n2)cc1	19
O=S(=O)(Cc1ccc(Cl)cc1)Nc1ccc(Cl)cn1	3
CCO[C@H]1OC(C(=O)N2CCN(C)CC2)=C[C@@H](c2ccc(C(F)(F)F)cc2)[C@@H]1CCCO	16
C#CCNC(=O)C1=C[C@@H](c2cn(C(C)=O)c3ccccc23)C[C@@H](OCCCCO)O1	13
CC(C)(C)c1ccc(NC(=O)Nc2ccc(OCC(=O)N3CCOCC3)cc2)cc1	13
CCn1c(Cc2ccccc2)n[nH]c1=S	14
CCN(CC)CCNC(=S)NC(=O)c1cn(-c2ccccc2)nc1-c1ccc(OC)cc1	10
Cc1ccc(C)c(NC(=O)CSc2nc3ccc(N4C(=O)c5ccccc5C4=O)cc3s2)c1	8

The last 6 entries of the section before open the next one:
SMILES	Calb biofilm kill
CCO[C@H]1OC(C(=O)N2CCN(C)CC2)=C[C@@H](c2ccc(C(F)(F)F)cc2)[C@@H]1CCCO	16
C#CCNC(=O)C1=C[C@@H](c2cn(C(C)=O)c3ccccc23)C[C@@H](OCCCCO)O1	13
CC(C)(C)c1ccc(NC(=O)Nc2ccc(OCC(=O)N3CCOCC3)cc2)cc1	13
CCn1c(Cc2ccccc2)n[nH]c1=S	14
CCN(CC)CCNC(=S)NC(=O)c1cn(-c2ccccc2)nc1-c1ccc(OC)cc1	10
Cc1ccc(C)c(NC(=O)CSc2nc3ccc(N4C(=O)c5ccccc5C4=O)cc3s2)c1	8
CCc1ccccc1NC(=S)N(Cc1cccs1)C1CCCC1	10
Cc1scc(C(=O)NNC(=O)CCC(=O)O)c1C	19
CCc1c(-c2n[nH]c(=S)n2Cc2ccccc2)csc1C	2
CCCNC(=O)CN1C(=O)NC(CCSC)C1=O (centres undefined)	12
COc1ccc(OC)c(NC(=O)C(=O)NCc2ccncc2)c1	22
COc1ccc(C2=NO[C@@H]3[C@@H]4C[C@@H]([C@H]5C(=O)N(c6ccc7c(c6)OCO7)C(=O)[C@@H]45)[C@H]23)cc1OC	11
CCN(CC)Cc1ccc(OC)c(Cl)c1	15
COc1ccc(/C=C/C(=O)OCC(=O)c2c(C)[nH]c3ccccc23)cc1OC	-2
O=C(c1cccnc1)N1CCN(S(=O)(=O)c2ccc(Cl)cc2)CC1	8
Cc1ccccc1NC(=S)N(Cc1ccccc1)Cc1cccnc1	3

Given as labelled records: 3 of the compounds above
C=CCNC(=O)c1ccccc1NC(=O)c1ccccc1SC
  Calb biofilm kill: 5

Cc1nc2c(Cl)c(C)nn2c2c1CCC2
  Calb biofilm kill: 1

COC(=O)c1ccc(C(=S)N2CCCCC2)cc1
  Calb biofilm kill: -11

Going on with the list.
SMILES	Calb biofilm kill
CCc1ccc(NC(=O)C(=O)NCCN2CCN(C(=O)c3ccco3)CC2)cc1	23
CCOc1ccccc1NC(=O)Nc1cnccn1	20
O=C(O)c1cnc(-c2ccccc2)nc1-c1ccccc1	21
Cc1cccn2c(CNCC(C)Oc3cccnc3)c(C(=O)N3CCOCC3)nc12 (centres undefined)	19
CC(=O)c1cccc(S(=O)(=O)N2CCC(C(=O)O)CC2)c1	19

Source: PubChem

A portion of the library (hit frequency here may not be typical).
